# Bioassay records as filed in PubChem.
# Mtb MenB inh = Mtb MenB enzyme inhibition | P9WNP5 | MenB enzyme assay, absorbance read-out; some hits fall short of the stated cut | inhibition, %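 (about 12 µg/mL by stock and volumes)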 | 100,000 tested, 0.43% active;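 active = mean of two replicates above 30%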;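 note: 0% = no compound and 100% = wells with inactive enzyme; the first replicate is given; strong numbers were not always called active; inactives centre near -10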
# Target sequence (P9WNP5 whole entry, looked up): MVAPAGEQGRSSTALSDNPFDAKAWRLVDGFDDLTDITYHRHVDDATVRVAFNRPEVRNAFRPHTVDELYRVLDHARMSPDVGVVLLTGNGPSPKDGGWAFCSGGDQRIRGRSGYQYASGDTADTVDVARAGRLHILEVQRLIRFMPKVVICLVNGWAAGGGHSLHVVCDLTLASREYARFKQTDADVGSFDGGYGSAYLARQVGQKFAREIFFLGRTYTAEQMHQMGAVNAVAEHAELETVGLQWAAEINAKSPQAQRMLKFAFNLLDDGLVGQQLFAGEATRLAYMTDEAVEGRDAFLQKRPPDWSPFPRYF
# Mtb MbtI inh = MbtI salicylate synthase inhibition | 100,000 tested, 0.89% active | AID 493033 | P9WFX0 | inhibition, %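 (about 17 µg/mL by stock and volumes)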 | purified MbtI enzyme, fluorescence intensity read-out;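 active = above 50% in both replicates, above 80% if mildly self-fluorescent; inactive = the rest, strongly fluorescent compounds included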;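 note: 0% = mean of negative and 100% = mean of positive controls; one replicate is shown; some compounds called inactive have numbers as strong as hits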
# Polio RdRp inh = inhibitors of poliovirus RNA polymerase binding and polymerization | P03300 | poliovirus polymerase elongation, fluorescence polarization; stronger effect = lower value | % elongation, % (compound at 16.7 µg/mL) | 150,000 tested, 0.66% active; in the data active = % elongation below about 90%; note: some results filed as inactive read as strong as hits
# Target sequence (P03300 1749-2209 limits assumed): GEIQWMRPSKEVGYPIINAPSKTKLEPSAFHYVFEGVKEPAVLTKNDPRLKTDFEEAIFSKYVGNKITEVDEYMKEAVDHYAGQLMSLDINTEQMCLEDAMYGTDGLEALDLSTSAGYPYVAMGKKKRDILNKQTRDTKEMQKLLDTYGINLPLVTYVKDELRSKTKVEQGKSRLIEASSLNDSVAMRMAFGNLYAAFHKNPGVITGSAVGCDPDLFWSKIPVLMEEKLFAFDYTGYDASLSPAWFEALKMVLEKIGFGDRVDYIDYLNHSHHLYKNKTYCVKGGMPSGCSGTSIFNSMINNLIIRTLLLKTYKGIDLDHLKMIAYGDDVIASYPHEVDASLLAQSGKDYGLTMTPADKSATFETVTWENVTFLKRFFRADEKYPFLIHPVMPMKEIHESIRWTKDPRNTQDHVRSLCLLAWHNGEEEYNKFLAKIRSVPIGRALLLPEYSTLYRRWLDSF
# Polio RdRp inh intensity = second read-out of Polio RdRp inh, no call of its own (marks repeat the call); % elongation; measured here: total intensity read-out; formula for this scale not given here;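 total fluorescence in place of polarization; lower means less elongation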
# Numbers without * were called inactive; · = no result given; & = joins results of further samples.
# Preview (22 entries):
SMILES,Mtb MenB inh,Mtb MbtI inh,Polio RdRp inh,Polio RdRp inh intensity
CCc1c(C)nc(SCC(=O)Nc2ccc3c(c2)OCCO3)[nH]c1=O,-37,46,101,99
CCC1CN(C(=O)n2ccnc2)c2ccccc2O1 (configuration not stated),-9,5,101,104
Cc1ccc(NC(=O)COC(=O)c2cnc3sccn3c2=O)cc1C,-17,-6,100,100
CCOc1ccccc1-n1nnc(C(N)=O)c1C,-15,-14,106,108
CCOC(=O)C1C2C=CC3(CN(CC(C)C)C(=O)C13)O2 (configuration not stated),7,-210,102,103
CCCC/C(C)=N/n1c(-c2ccco2)csc1=NC,-40,19,133,141
C=Cn1c(C(=O)O)cc(CC)c1-c1ccccc1,2,11,105,103
Cc1ccc(C)c(C(=O)O)c1,-22,-8,98,93
O=C(c1ccco1)N1CCN(c2ncnc3nc[nH]c23)CC1,8,2,103,105
CC(C)(C)CC(=O)Nc1ccc2c(c1)OCCO2,-16,-14,99,102
Clc1ccccc1/C=N/c1nc2ccccc2n1CCN1CCCCC1,·,-13,100,100
CC1=NN(C(C#N)c2ccccc2)C(C)(C)C1 (configuration not stated),-9,0,104,104
CCn1cc(/C=C(\NC(=O)c2ccccc2F)C(=O)N2CCN(C)CC2)c2ccccc21,-2,0,103,102
Fc1cccc(F)c1C=Nc1ccc2c(c1)OCCO2,-21,-21,101,101
CCC(=O)Nc1sccc1C(N)=O,-1,11,99,110
Cn1c(SCc2ccccc2Cl)nnc1-c1oc2nc(-c3ccccc3)cc(-c3ccco3)c2c1N,-23,18,106,160
O=C1CC(Cc2ccccc2)C(=O)N1c1nccs1 (configuration not stated),-10,-9,102,108
CC(C)(C)C(=O)N(Cc1nc(-c2ccccc2)no1)C1CCCCC1,-19,-5,104,105
CCC(Sc1nc(N)cc(=O)[nH]1)C(=O)Nc1cccc2ccccc12 (configuration not stated),33,12,105,104
O=C(NCc1cccs1)c1c[nH]c2c(F)cccc2c1=O,-7,-1,102,100
Cc1cc(C)c2c(n1)SCC(=O)N2CC(=O)NCC1CCCO1 (configuration not stated),-1,4,103,103
CCCN(Cc1nc2cc(Cl)ccc2c(=O)[nH]1)C(=S)NC,-42,31,·,·

# The list itself, from the start:
SMILES,Mtb MenB inh,Mtb MbtI inh,Polio RdRp inh,Polio RdRp inh intensity
CCc1c(C)nc(SCC(=O)Nc2ccc3c(c2)OCCO3)[nH]c1=O,-37,46,101,99
CCC1CN(C(=O)n2ccnc2)c2ccccc2O1 (configuration not stated),-9,5,101,104
Cc1ccc(NC(=O)COC(=O)c2cnc3sccn3c2=O)cc1C,-17,-6,100,100
CCOc1ccccc1-n1nnc(C(N)=O)c1C,-15,-14,106,108
CCOC(=O)C1C2C=CC3(CN(CC(C)C)C(=O)C13)O2 (configuration not stated),7,-210,102,103
CCCC/C(C)=N/n1c(-c2ccco2)csc1=NC,-40,19,133,141
C=Cn1c(C(=O)O)cc(CC)c1-c1ccccc1,2,11,105,103
Cc1ccc(C)c(C(=O)O)c1,-22,-8,98,93
O=C(c1ccco1)N1CCN(c2ncnc3nc[nH]c23)CC1,8,2,103,105
CC(C)(C)CC(=O)Nc1ccc2c(c1)OCCO2,-16,-14,99,102
Clc1ccccc1/C=N/c1nc2ccccc2n1CCN1CCCCC1,·,-13,100,100
CC1=NN(C(C#N)c2ccccc2)C(C)(C)C1 (configuration not stated),-9,0,104,104
CCn1cc(/C=C(\NC(=O)c2ccccc2F)C(=O)N2CCN(C)CC2)c2ccccc21,-2,0,103,102
Fc1cccc(F)c1C=Nc1ccc2c(c1)OCCO2,-21,-21,101,101
CCC(=O)Nc1sccc1C(N)=O,-1,11,99,110
Cn1c(SCc2ccccc2Cl)nnc1-c1oc2nc(-c3ccccc3)cc(-c3ccco3)c2c1N,-23,18,106,160
O=C1CC(Cc2ccccc2)C(=O)N1c1nccs1 (configuration not stated),-10,-9,102,108
CC(C)(C)C(=O)N(Cc1nc(-c2ccccc2)no1)C1CCCCC1,-19,-5,104,105
CCC(Sc1nc(N)cc(=O)[nH]1)C(=O)Nc1cccc2ccccc12 (configuration not stated),33,12,105,104
O=C(NCc1cccs1)c1c[nH]c2c(F)cccc2c1=O,-7,-1,102,100
Cc1cc(C)c2c(n1)SCC(=O)N2CC(=O)NCC1CCCO1 (configuration not stated),-1,4,103,103
CCCN(Cc1nc2cc(Cl)ccc2c(=O)[nH]1)C(=S)NC,-42,31,·,·
Cc1csc2sc(C=C(C#N)C#N)c(C)c12,17,1,103,104
CC(=O)Nc1ccc(C(=O)OCC(=O)NCc2ccccc2Cl)cc1,·,-5,102,96
NC(=O)CCS(=O)(=O)CCN1CCN(Cc2c(F)cccc2Cl)CC1,-15,-14,98,103
O=C(c1cccs1)N1CCCn2c1nc1ccccc12,-11,-6,102,101
Nn1c(SCC(=O)O)nnc1-c1ccncc1,13,-1,101,105
c1cc2c(cc1-c1nc3sc(-c4ccc5c(c4)OCO5)nc3s1)OCO2,-9,-4,99,110
CCC(=O)N(c1nnc(SCc2ncc(-c3ccccc3)o2)s1)C1CC1,-17,-11,106,107
N#CCCN(C(=O)Nc1ccccc1)c1ccccc1,5,-1,100,101
O=C(O)[C@H](Cc1ccccc1)N1C(=O)c2ccncc2C1=O,-14,-11,102,96
COC(=O)c1[nH]c(COc2ncnc3ccccc23)c(C(=O)OC)c1C,-20,-2,·,·
OC(CCN1CCCCC1)(c1ccccc1)c1ccccc1,-10&3,-4&-11,101&100,99&103
NS(=O)(=O)c1cc(C(=O)O)c(NCc2ccco2)cc1Cl,-2&-3,-5&3,100&98,101&99
O=C(CSc1cccc[n+]1[O-])NC1CCCCCC1,·,4,100,97
CCOC(=O)c1cc(-c2cccnc2)nc2c1c(C)nn2C,20,8,100,96
CSc1ncc(C(=O)N2CCCc3ccccc32)c(C)n1,-1,-12,105,108
CCOc1ccc(NC(=O)N(CCN2CCOCC2)Cc2ccc3c(c2)CCCN3CC)cc1,-12,-4,102,97
Cc1ccc(NC2=NC(c3ccccc3)n3c(nc(C)cc3=O)N2)cc1 (configuration not stated),-20,-15,104,104
CSc1sc(C(=O)O)c(-c2cccs2)c1C#N,-10,0,106,110
Cc1c(C(=O)OC(C)C(=O)Nc2ccc(S(N)(=O)=O)cc2)sc2nc3n(c(=O)c12)CCCCC3 (configuration not stated),-7,-6,106,113
O=C(OCC(=O)N1CCN(c2ccccc2)CC1)c1ccc2[nH]c3c(c2c1)CCCC3,1,13,106,98
COc1ccccc1N=Cc1ccsc1S,-21,94,105,96
O=C(O)CCC(=O)N1CC(=O)Nc2ccccc21,-8,·,96,100
Oc1ccc(N=Cc2ccc[nH]2)cc1N=Cc1ccc[nH]1,·,-53,91,132
O=C(Cc1ccccc1)NN1C(=O)C2C3C=CC(C3)C2C1=O (configuration not stated),10,0,102,103
NC(N)=NC(N)=Nc1ccccc1C(F)(F)F,6,-13,102,105
O=C(OCc1ccc(Br)cc1)c1ccco1,-34,-9,100,102
O=C(O)c1ccc2c(c1)ncn2C1CCCCC1,1,-6,104,100
C[C@H](NC(=O)c1ccco1)C(=O)Nc1ccc(S(=O)(=O)N2CCCC2)cc1,-15,-9,100,103
COc1cc(-c2nc3ccccn3c2/N=C/c2cccc(Cl)c2Cl)ccc1O,-7,·,100,105
Cc1ccc(NC(=S)Nc2ccc(C)cc2)cc1,-12,57*,76*,82*
O=C(OCC1CCCO1)c1cc(F)c(F)c(F)c1F (configuration not stated),·,3,103,98
Cc1cc(=O)oc2ccc(O)cc12,-16,129,101,104
N=c1oc2ccccc2cc1C(=O)Nc1ccccc1,33,-1,99,103
COc1ccc(C)c2sc(=NC(=O)C3CC3)n(C)c12,-24,1,105,100
CC1=C(C(=O)Nc2cccc(C(F)(F)F)c2)C(c2ccccc2)C2=C(CCCC2=O)N1 (configuration not stated),-20,-42,103,106
C=CCn1c(SCc2cccnc2)nnc1-c1ccncc1,-7,-9,104,105
COc1cc(Cl)c(C)cc1NC(=S)N(Cc1ccccc1C)CC1CCC(C(=O)O)CC1 (configuration not stated),-11,52*,98,100
Cc1ccccc1N1C(=O)C=CC1=O,-18,100*,100,95

# (cont.)
SMILES,Mtb MenB inh,Mtb MbtI inh,Polio RdRp inh,Polio RdRp inh intensity
Cc1nc(SCC(=O)c2ccc3c(c2)CCN3S(C)(=O)=O)n(C2CCCCC2)c1C,-9,4,102,107
Cn1cc(C(=O)N/N=C/c2ccc(Cl)cc2Cl)ccc1=O,-8,12,100,103
CC(C)c1cc(C(C)C)c(S(=O)(=O)NCCCN2CCOCC2)c(C(C)C)c1,-24,-5,106,109
CN(C)C(=O)CN(c1ccc(Cl)cc1Cl)S(C)(=O)=O,-6,-26,102,102
COc1ccc(/C=c2\sc3n(c2=O)C(N)=C(C#N)C(c2ccc(OC)cc2)C=3C#N)cc1 (configuration not stated),1,-4,105,112
Cc1ccc(NS(=O)(=O)c2cc(Cl)ccc2Cl)nc1,-52,77,104,102
N#C/C(=C\c1cn(-c2ccccc2)nc1-c1cc2ccccc2o1)C(N)=S,-60,-11,101,108
C=CCc1cccc(O)c1O,·,89*,101,96
Cc1cccc(NC(=O)c2cnn(-c3ccc(F)cc3)c2C2CCN(C(=O)OC(C)(C)C)CC2)c1C,-3,3,100,97
S=C(Nc1cccnc1)NC(c1ccccc1)c1ccccc1,-32,·,106,107
Cc1c(C(=O)N2CCC3(CC2)OCCO3)oc2ccc(S(=O)(=O)N3CCCCC3)cc12,-16,-14,101,104
N#C/C(=C\c1ccc(-c2ccccc2Br)o1)C(=O)N1CCOCC1,-28,21,102,98
CCn1cnc2sc(C(=O)Nc3ccccc3)c(C)c2c1=O,0,4,103,105
O=C(O)c1ccccc1NCc1ccc(Cl)cc1,-2,90,99,104
CCCC12CN3CC(CCC)(CN(C1)C31C(=O)Nc3ccccc31)C2=O (configuration not stated),15,3,100,98
CC(=O)Nc1cccc(Oc2nnc(-c3ccccc3)c3ccccc23)c1,·,-4,102,106
O=c1c2ccc(-c3nnc(SCc4cn5ccccc5n4)o3)cc2nc2n1CCCCC2,-17,4,107,106
Cn1ccsc1=NC(=O)/C=C/c1cc(Cl)c2c(c1)OCCCO2,-3,-7,119,123
Cc1ccc(NCC(=O)SCc2csc(Nc3ccccc3)n2)cc1,-11,·,105,108
c1ccc2c(c1)nnn2CN1CCCCC1,·,-1,104,111
Cc1nn(-c2ccccc2)nc1CNC(=O)c1cccs1,-8,-8,105,110
N#Cc1c(-c2ccccc2)n2c(-c3ccccc3)nn(-c3ccccc3)c2nc1=O,11,-6,106,104
CC(C)c1ccc(C(=O)OCC(=O)NCc2ccco2)cc1,·,3,100,103
N#CCCN(CCc1ccccn1)S(=O)(=O)c1ccc2c(c1)CCO2,14,-10,100,97
CC(=O)Nc1ccc(OCC(O)Cn2ccnc2)cc1 (configuration not stated),31*,0,103,101
COc1ccc(-c2cc(C(=O)N3CCOCC3)c3c(-c4ccc(Cl)cc4)[nH]nc3n2)cc1,15,5,101,103
O=C(COC(=O)c1ccc(S(=O)(=O)Nc2ccccc2)cc1)NCC1CCCO1 (configuration not stated),0,-15,104,94
O=C(/C=C\c1ccco1)Oc1cccc2cccnc12,-57,28,103,101
CNc1nc2ccccc2o1,-26,-16,103,100
Cc1cccc(C)c1NC(=O)C1(N(C)C(=O)CSc2nc3ccccc3o2)CCCCC1,-21,·,105,110
CN(c1cccc(Cl)c1)S(=O)(=O)c1cccc(C(=O)NN2CCOCC2)c1,3,-6,102,99
CN1C(=O)CSc2ccc(NC(=O)N3CCc4ccccc43)cc21,-33,-1,104,98
CN(CC1CC=CCC1)CC(O)c1ccccc1 (configuration not stated),8,-10,100,104
O=C(CCC1COc2ccccc2O1)Nc1ccccc1Cl (configuration not stated),4,3,102,100
Cc1cc(C(=O)OCC(=O)Nc2ccccc2C#N)c(C)n1-c1ccc(F)cc1,-18,38,103,105
COc1cccc(N2C(=O)/C(=C\N3CCCCC3)C(=O)NC2=S)c1,-13,-1,100,102
O=C1N/C(=N/N=C/c2ccco2)SC1c1ccccc1 (configuration not stated),-17,12,100,100
O=C(c1ccc(Br)cc1)c1cc2c(cc1Br)OCCCO2,-21,-8,103,102
Cc1nn(-c2ccccc2)c2sc(C(=O)OCC(=O)c3ccccc3)cc12,-10,-8,104,111
Cc1ccccc1S(=O)(=O)Cc1ccc(C(=O)NC2CCCC2)o1,-5,12,102,105
O=C1Cc2cc(S(=O)(=O)NNc3ccc(C(F)(F)F)cn3)ccc2N1,-12,5,104,106
CCOc1cc(/C=C2/C(=O)N(c3ccccc3)C(=S)N(c3ccc(C)c(C)c3)C2=O)ccc1O,-27,38,96,94
CCNc1nc(NCC)n2c(SCC(=O)N3CC(C)OC(C)C3)nnc2n1 (configuration not stated),-19,-10,101,105
CCOc1ccc(N(Cc2cc3cc(OC)ccc3[nH]c2=O)S(C)(=O)=O)cc1,-11,-3,101,105
O=C(N=c1c2c3c(sc2nc2n1CCCCC2)CCCC3)c1ccc(S(=O)(=O)N2CCOCC2)cc1,-18,-12,107,107
COc1c(C)c2c(c(O)c1C/C=C(\C)CCC(=O)O)C(=O)OC2,-6&-3,-112&-46,103&100,103&103
CCOC(=O)N1CCC(=NNc2nc(C)cc(=O)[nH]2)CC1,-12,-5,102,107
